Source: PubChem
AID504770: growth inhibitors of E. coli YBA685 in a screen for V. cholerae RctB (chromosome II replication) inhibitors. z-score (concentration not given with the values). 0.27% of 130,000 active. E. coli YBA685 rctB-dependent plasmid, OD600 growth, 3 h; stronger effect = lower value;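 active = z-score under -2 on both plates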;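 also: wells of about 30 µL received 100 nL stock; score is relative to mean and SD of the test wells; the first replicate is given; strong numbers were not always called active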
CapD inh: CapD enzyme inhibition; purified CapD enzyme, fluorescence intensity read-out; stronger effect = lower value; some hits fall short of the stated cut; z-score (concentration not given with the values); 0.23% of 140,000 active;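 active = z-score under -4 in either of two replicates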;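 also: stock transfer was 100 nL into about 40 µL; score is relative to mean and spread of the plate; one replicate is shown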
Active calls of the source: *; i = inactive; . = not tested or not shown; & = joins results of further samples. Compounds were not picked by outcome; about 0.41% have a hit in one of these screens.

mol	AID504770	CapD inh
Nc1ccc(C(=O)Nc2ccccc2)cc1	-0.3	0.62
COC(=O)c1sccc1S(=O)(=O)N1CCC2(CC1)OCCO2	0.4	0.685
COc1cc(-n2cnc3cc(C(=O)NCCC4=CCCCC4)ccc32)cc(OC)c1OC	.	0.725
C=CC(c1ccccc1)C(C(=O)c1ccccc1)N(C)C (centres undefined)	-0.6	0.19
NC(=O)CSc1nc2c(c(=O)n1-c1ccccc1)C1(CCCCC1)Cc1ccccc1-2	.	0.935
COc1ccc(CCN2C(=O)CC(=O)NC2=S)cc1OC	-0.35	.
O=c1[nH]nc(SCc2ccc(CSc3n[nH]c(=O)[nH]c3=O)cc2)c(=O)[nH]1	0.6	.
COc1ccc2nc(SCC(=O)Nc3ccc([N+](=O)[O-])cc3Cl)[nH]c2c1	.	-1.69
C=CCOc1ccc(C(=O)NCC)cc1	-0.75	1.02
Cc1ccc(N(CCO)S(=O)(=O)c2ccc(NC3=NS(=O)(=O)c4ccccc43)cc2)cc1	0.6	.
Cc1ccc(C)c(C(=O)CSc2nnc(-c3cccc(S(=O)(=O)N4CCOCC4)c3)o2)c1	1.3	.
C=CCN(Cc1cc(=O)n2ccsc2n1)S(=O)(=O)c1ccc(Cl)cc1	-0.4	.
CCOC(=O)c1c(NC(=S)Nn2cnnc2)sc2c1CCCCCC2	-0.75	2.02
Cc1ccc2ncc(-c3ccc4cc(C)ccc4n3)cc2c1	-0.45	-1.48
COc1ccc(S(=O)(=O)N2CCN(C(=S)NC3CCCCC3)CC2)cc1	1.85	0.605
Cc1c(NC(=O)c2cc3cccc4c3n(c2=O)CCC4)cccc1C(F)(F)F	.	-0.335
CCc1cc2c3c(c(=O)oc2cc1OCC(=O)O)CCCC3	-0.2	51.8
COc1ccc(-n2c(SCc3ccc(C#N)cc3)nc3ccccc32)cc1	-1.5	.
O=C(c1cccc2ccccc12)N(C1CCCC1)C1CCCC1	0.9	0.235
CCCN1Cc2cccc(C(=O)N3CCN(c4ccc(OC)cc4)CC3)c2C1=O	-0.5	-0.03
Cc1nc2ccccn2c1C1(O)C(=O)Nc2c(Cl)cc(Cl)cc21 (centres undefined)	-0.6	3.58
Cc1nn(-c2ccccc2)c(OC(=O)c2cccs2)c1Sc1ccccc1	.	0.145
O=C(NCCCC(NC(=O)OCCCCCc1ccccc1)C(=O)OCc1ccccc1)OCc1ccccc1 (centres undefined)	.	-0.085
N=C(N)SCc1csc2c1CCCC2	-0.9	0.1
Cc1ccc(C(=O)CSc2nc(N)c(C(=O)c3ccc(C)cc3)s2)cc1	1.05	0.545
N#C/C(=C\O)c1ccc(Cl)cc1Cl	-0.7	0.3
Cc1cc(-c2ccccc2)nc(SCC(=O)N2CCCCC2)n1	.	0.475
CCCCNc1nc(SCC(=O)Nc2cc(C)on2)nc2ccccc12	.	1.11
COc1ccc(C2C(C#N)=C(N)Oc3n[nH]c(C)c32)cc1OCc1ccc(Cl)cc1 (centres undefined)	.	-0.95
O=C1C2C3CC4C1C1C2CC3C41 (centres undefined)	-0.35	.
CC(=O)Nc1c2c(nn1-c1ccc(C)cc1)CS(=O)(=O)C2	0.05	0.715
O=C(O)CC1(CC(=O)Nc2ccc3sccc3c2)CCCCC1	1.15	-0.3
COc1ccc(C(O)CNc2ccc(C)cc2)cc1 (centres undefined)	1.4	-0.31
COc1ccc(CN(C)C(=O)C2CC3C=CC2C3)c(OC)c1 (centres undefined)	-0.4	.
Cc1ccc(CNC(=O)c2cnn(-c3ccccc3)c2-n2cccc2)cc1	-0.35	-0.405
COc1ccccc1C1C(C(=O)OCC(N)=O)CCC(=O)N1c1ccc(C)cc1 (centres undefined)	-0.4	.
CC(C)C(NC(=O)c1ccc(Cl)cc1)C(=O)Nc1cccc(-n2cnnn2)c1 (centres undefined)	-0.6	.
COCCN(C(C)=O)c1nnc(-c2cccnc2)s1	-0.5	.
Cc1cc(NC(=O)Cc2cn3ccsc3n2)n(-c2ccccc2)n1	0.5	0.06
COC(=O)c1ccc(NC(=O)CSc2nnc(N)s2)cc1	-1	0.77
COc1ccc(C2C(C(=O)O)CC(=O)N2Cc2ccccc2)cc1 (centres undefined)	1.45	-0.795
CCc1nnc2c(NCC3CCCN3CC)nc3ccccc3n12 (centres undefined)	-0.7	-0.21
Clc1ccccc1C1Nc2ccc3ccccc3c2C2C=CCC21 (centres undefined)	.	14.9
O=C1c2cccc3cccc(c23)C(=O)N1CC1CCCO1 (centres undefined)	.	86.8
CCCN(CCC)C(=O)c1cc(-c2ccc3c(c2)OCO3)nc2ccccc12	-1.15	27.6
O=c1c(Cl)c(N2CCOCC2)cnn1-c1ncc(C(F)(F)F)cc1Cl	.	-0.39
O=C(CC(NCCc1ccccc1)C(=O)O)Nc1cccc(Cl)c1 (centres undefined)	-0.9	0.025
Cc1cc2nnc(SCc3ccc(Cl)cc3)n2c2ccccc12	-0.5	-0.03
CC(=O)Nc1sc(C)c(C)c1C(=O)OCC(=O)c1cc(C)n(C)c1C	-0.1	.
CCOC(=O)c1c(OCC)[nH]c2c1cc(O)c1ccccc12	-0.8	i

(list continues)
mol	AID504770	CapD inh
O=C(CSC1=Nc2ccccc2C2CC=NN12)Nc1ccc2c(c1)CCC2 (centres undefined)	0.25	.
CCCC1=NN(C(=O)c2ccc(Cl)cc2)C(=O)C1Cc1c(F)cccc1Cl (centres undefined)	.	0.1
CCCCN(C(=O)c1c(C)oc2ncn(C)c(=O)c12)C1CCN(C(C)=O)CC1	0.65	-0.185
Cc1ccc(-c2noc(COC(=O)CCC(=O)c3ccc(Cl)s3)n2)cc1	-0.35	.
O=[N+]([O-])c1ccc2nc(N3CCNCC3)nc(-c3ccccc3)c2c1	.	-0.075
NC(=S)c1[nH]nc2c1[nH]c1ccccc12	-0.8	-2.23
COC(=O)c1cc(OC)c(OC)cc1NC(=O)c1ccccc1	.	-0.455
Cc1ccc2oc(-c3ccc(NC(=O)c4ccc5c(c4)OCCO5)cc3O)nc2c1	.	0.61
O=c1cc(-c2ccccc2)cc(-c2ccccc2)o1	.	-0.33
COc1ccc(NC(=O)c2coc(C)c2)cc1	-0.3	.
CC(=O)N1CCC(N(C(=O)CCC(=O)O)C2CC2)CC1	.	-1.03
O=C(Nc1ccc(N2C(=O)Nc3ccccc3N2O)cc1)c1ccco1	-0.3	-0.925
CC(=O)c1cccc(N2C(=O)C3C(C2=O)C2(C)c4ccccc4C3(C)c3ccccc32)c1 (centres undefined)	.	-0.12
O=C(CSc1nc2ccccc2c(=O)n1CC1CCC(C(=O)NCc2ccccc2Cl)CC1)NCc1ccco1 (centres undefined)	.	-0.075
Cc1ccnc2nc(C(=O)Nc3ccc(Cl)cc3F)nn12	-0.4	0.24
CCOc1ccc(/C=N/n2c(C)csc2=Nc2ccc(C)cc2)c(O)c1	0.3	.
O=c1c(Cc2ccc(Cl)cc2Cl)c(O)ccn1CCCN1CCOCC1	.	-0.005
CCOc1cc(C2C3=C(CC(C)(C)CC3=O)OC3=C2C(=O)CC(C)(C)C3)ccc1O	.	-0.095
Cc1ccc2c(Cl)c(C(=O)Nc3sc4c(c3C#N)CCC(C(C)(C)C)C4)sc2c1 (centres undefined)	.	-0.445
CN1C(=O)C(O)N(c2ccc(Cl)c(Cl)c2)C1=O (centres undefined)	-0.75	.
CCOC(=O)c1ccc(-n2c(/C=C/c3ccc([N+](=O)[O-])o3)nc3ccccc3c2=O)cc1	.	-0.06
COc1ccccc1CNC(=O)CN1CCc2ccccc2C1	1.15	.
Cc1cc(C(F)(F)F)nc2ccccc12	0.1	0.525
N#CC(C#N)=C1C=C2C=C(NCc3ccccc3)CCC2CC1 (centres undefined)	1.85	.
CCOC(=O)/C(C)=N/Nc1ccc(OC(F)(F)F)cc1	0.05	-2.35

Some of these compounds in order of length of the SMILES, ascending.
mol	AID504770	CapD inh
COC(=O)c1cc(OC)c(OC)cc1NC(=O)c1ccccc1	.	-0.455
CCOc1ccc(/C=N/n2c(C)csc2=Nc2ccc(C)cc2)c(O)c1	0.3	.
Cc1ccc2oc(-c3ccc(NC(=O)c4ccc5c(c4)OCCO5)cc3O)nc2c1	.	0.61
CCCCN(C(=O)c1c(C)oc2ncn(C)c(=O)c12)C1CCN(C(C)=O)CC1	0.65	-0.185
O=C(CSc1nc2ccccc2c(=O)n1CC1CCC(C(=O)NCc2ccccc2Cl)CC1)NCc1ccco1 (centres undefined)	.	-0.075

Not a retest: an excerpt of the list.
mol	AID504770	CapD inh
Cc1cc(C(F)(F)F)nc2ccccc12	0.1	0.525
N#CC(C#N)=C1C=C2C=C(NCc3ccccc3)CCC2CC1 (centres undefined)	1.85	.
CCOC(=O)/C(C)=N/Nc1ccc(OC(F)(F)F)cc1	0.05	-2.35

Following part.
mol	AID504770	CapD inh
O=C1CC(c2ccsc2)c2c(-c3ccccc3)nn(-c3ccccc3)c2N1 (centres undefined)	0.25	-0.7
Cc1cc(C)n(-c2nnc(C)n2/N=C/c2ccccc2F)n1	.	-0.985
C=CC(C)C(C(=O)c1ccccc1)N(C)C (centres undefined)	-0.7	0.955
CCc1cc2c(NCC3CCCO3)ncnc2s1 (centres undefined)	-1.25	.
CCOC(=O)c1c(C)n(-c2ccc(N(CC)CC)cc2)c2c1cc(O)c1ccccc12	.	0.44
CN(Cc1nc(-c2ccccc2)no1)C(=O)CC1CCCCC1	-0.4	0.565
Cc1no[n+]([O-])c1COc1cccc(/C=C2\SC(=S)NC2=O)c1	0.1	.
CC(Nc1nc(N2CCN(S(C)(=O)=O)CC2)nc2ccccc12)c1ccccc1 (centres undefined)	0.1	98.5
O=C1c2ccccc2C(=O)c2c(NC(=O)c3cccc4c3C(=O)c3ccccc3-4)cccc21	.	0.4
COc1ccc(-c2nn(-c3ccccc3)cc2/C=C\C(=O)N2CCCCC2)cc1	-0.8	7.86
COc1ccc(C2CC(c3cccs3)=NN2C(=O)CSC2=NN3CCCC(=O)N=C3S2)cc1 (centres undefined)	.	10.4
O=C1/C(=C\c2cccs2)N=C(c2ccccc2)N1Cc1ccc(Cl)cc1	-0.55	-3.3
CCNc1nc(NC(C)C)nc(OCCOC(=O)c2ccccc2)n1	.	-0.335
COc1ccc(CN2CCN(CCOC(=O)N3CCN(c4cccc5[nH]ccc45)CC3)CC2)cc1Br	.	1.22
O=C(Nc1ccc(NC(=O)c2cccnc2)cc1)c1cccnc1	0.85	0.49
NC(=O)c1ccc(NC(=O)CCC(=O)N2CCN(S(=O)(=O)c3ccc(Cl)cc3)CC2)cc1	-0.5	.
Nc1ccc(S(=O)(=O)Nc2ncccn2)cc1	0.65	-0.02&0.59
COc1ccc(OC)c(NC(=O)CSc2nccn2-c2cccc(Cl)c2)c1	-0.7	-1.11
CC(C)NC(=O)NNc1c(Cl)cccc1Cl	-0.15	-0.62
Cc1cc(C(=O)/C(C#N)=N/Nc2cccc(Cl)c2)n(C(C)(C)C)n1	-0.55	-3.74
O=C1CC(c2ccccc2)CC(O)=C1C=NCc1cccc(C(F)(F)F)c1 (centres undefined)	1.85	13.4
Cc1ccc(Cn2nccc2NC(=O)c2cccnc2Nc2ccccc2F)o1	-0.3	.
CN(C)/C=C1\CSc2ccc(F)cc2C1=O	.	-0.705
O=C(OCCCN(C1=NS(=O)(=O)c2ccccc21)c1ccccc1)c1ccccc1F	.	-0.225
CC(C)C(=O)N1N=C(c2ccccc2)CC1(O)C(F)(F)F (centres undefined)	-0.1	-0.245
COc1cccc(-c2nnc(NC(=O)c3ccc(S(=O)(=O)N(Cc4ccccc4)C(C)C)cc3)o2)c1	1.4	.
COc1ccc(OC)c(/C=N/NC(=O)CS(=O)(=O)c2ccc(C(F)(F)F)cn2)c1	.	3.79
CN(C)c1cc(C(=O)N2CCN(C(=S)NCc3ccc(Cl)cc3)CC2)nc(N(C)C)n1	.	2.82
CCOC(=O)c1c(CS(=O)c2ccc(Cl)cc2)oc2c(F)c(F)c(F)c(F)c12 (centres undefined)	0.85	1.07
O=C(c1ccccc1)N1CCc2c([nH]c3ccccc23)C1c1ccccc1 (centres undefined)	2.5	-0.43
N#Cc1ccc(OCC(=O)N=Nc2[nH]c(N)c3ccccc23)cc1	1.5	.
CCCCCCCCCCOC(=O)c1ccc(N2C(=O)C3C4c5ccccc5C(c5ccccc54)C3C2=O)cc1 (centres undefined)	.	0.075
C/C(=N\NC(=O)C1CC1)c1ccc(Cl)s1	0.1	.
S=C(NC1CC1)N(Cc1ccco1)Cc1cccs1	-0.8	.
Cc1ccn2c(=O)cc(CNCC3(N4CCCCC4)CCCCC3)nc2c1	-0.25	.
Clc1ccc(-c2nc(-c3cccc(-n4cccc4)c3)no2)cc1	-0.05	0.465
CC(C)C(=O)CC(c1ccccc1)C1C(=O)NC(=O)NC1=O (centres undefined)	-0.2	.
O=C1OC(c2ccco2)=N/C1=C\c1ccco1	2.15	0.315
CCCCn1c(=O)c2c(O)cc(=O)oc2c2ccccc21	.	-0.74
CC(COC(=O)NCc1ccc(N(C)C)cc1)c1ccccc1 (centres undefined)	.	0.98
CCCCn1c(=O)c(-c2ccccc2)c(O)c2ccccc21	.	1.23
CCCN(CCC)C(=O)CCc1ccccc1	-0.8	0.465
Nc1nnc(SCCCc2ccccc2)s1	-0.45	.
CC1CN/C(=C/C(=O)c2ccccc2)C(=O)N1 (centres undefined)	0.55	-2.62
Cc1oc2c(cc(NS(=O)(=O)c3ccc(F)cc3)c3ccccc32)c1C(=O)OC(C)C	.	-0.305
